Mtb betalactam: beta-lactam sensitization of Mtb H37Rv. M. tuberculosis H37Rv growth with meropenem, percent inhibition; hits of this screen are not shown here. inhibition, % at 25 µM. 0.27% of 330,000 active. AID 434955;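 active means about 74% or more and at least 40 points above the plate without the antibiotic, then above 30% in a dose series; inconclusive means first-round hits that could not be retested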;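 further: growth measured after seven days incubation then overnight dye step; 0% = bacteria only wells and 100% = bacteria with antibiotic; twin plates without the antibiotic show which effects depend on it; some results filed as inactive read as strong as hits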
RecA intein inh: inhibitors of M. tuberculosis RecA intein splicing. cell-free RecA intein splicing, fluorescence. inhibition, %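 (about 9 µM by stock and volumes)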. 0.75% of 290,000 active. AID 2221; in the data active means inhibition above about 30%; inconclusive means no clear call, values can overlap the other calls;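 further: 0% = vehicle wells and 100% = reference inhibitor control wells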
Target sequence (P9WHJ3 whole entry, looked up): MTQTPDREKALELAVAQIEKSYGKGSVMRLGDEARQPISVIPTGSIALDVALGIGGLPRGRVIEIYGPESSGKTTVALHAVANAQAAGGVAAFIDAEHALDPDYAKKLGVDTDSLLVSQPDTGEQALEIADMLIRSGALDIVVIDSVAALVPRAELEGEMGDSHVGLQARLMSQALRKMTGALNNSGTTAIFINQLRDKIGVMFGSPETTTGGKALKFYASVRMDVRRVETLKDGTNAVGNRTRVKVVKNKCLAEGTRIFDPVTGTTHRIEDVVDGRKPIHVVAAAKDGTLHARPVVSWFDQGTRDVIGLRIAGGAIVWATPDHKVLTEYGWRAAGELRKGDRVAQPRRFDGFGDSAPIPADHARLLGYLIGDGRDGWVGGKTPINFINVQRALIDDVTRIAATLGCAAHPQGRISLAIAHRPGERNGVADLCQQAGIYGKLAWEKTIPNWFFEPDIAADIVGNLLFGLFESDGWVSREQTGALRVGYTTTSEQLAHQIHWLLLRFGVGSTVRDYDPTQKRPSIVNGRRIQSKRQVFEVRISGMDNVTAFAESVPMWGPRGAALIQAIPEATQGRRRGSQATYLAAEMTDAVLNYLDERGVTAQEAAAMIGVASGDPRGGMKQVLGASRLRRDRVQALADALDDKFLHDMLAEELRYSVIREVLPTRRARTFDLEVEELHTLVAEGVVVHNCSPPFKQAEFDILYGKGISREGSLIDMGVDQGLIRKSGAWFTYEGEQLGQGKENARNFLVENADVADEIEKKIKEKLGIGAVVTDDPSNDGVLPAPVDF
YopH inh: YopH (Yersinia) phosphatase inhibition; fluorescence Ex485/Em525; inhibition, %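 (about 10 µM by stock and volumes)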; 0.16% of 140,000 active; AID 898;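 active means inhibition of 50% or more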;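 further: controls were vehicle for no effect and minimum signal wells for full effect; inactives centre near -20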
Arbovirus inh: blocks arbovirus infection | arbovirus infection cell-based antiviral screen | inhibition, % at 10 µM | 0.37% of 200,000 active;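 active means inhibition from about 30%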;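 further: bluetongue infection of BSR cells; cell survival read as ATP light after 72 h; 0% = infected wells without compound and 100% = uninfected wells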
Mtb H37Rv: M. tuberculosis H37Rv growth inhibitors, H37Rv strain (AID 1626). inhibition, % at 10 µM, or IC50 in µM where a hit was titrated. 0.95% of 220,000 active. M. tuberculosis H37Rv growth inhibition; higher % means a stronger effect;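 active means confirmed in a dose series; inconclusive means inhibition above 80% but not taken into the dose series; inactive means below 80% or under 30% at every dose of the series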;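 further: bacteria incubated seven days before Alamar blue readout; 0% = bacteria only wells and 100% = bacteria with antibiotic wells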
Arbovirus inh repeat: further read-out of Arbovirus inh, marked with its call; inhibition, %; measured here: 10K subset replicate screen; many hits read low in the repeat;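 first of two repeat runs on a subset; 0% = infected and 100% = uninfected wells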
Numbers without * were called inactive; i = inactive; ? = inconclusive; . = not tested or not shown. Some of the compounds tested; the hit share may differ from the screen's.

SMILES	Mtb betalactam	RecA intein inh	YopH inh	Arbovirus inh	Mtb H37Rv	others
O=c1[nH]c2ccc(N/C(=N/S(=O)(=O)c3ccccc3)c3ccccc3)cc2[nH]1	0	-1.4	-16	1	5%
CCOc1nc(Nc2ccc(F)cc2)nc(N2CCN(c3ccc(OC)cc3)CC2)n1	0	-2.0	12	0	5%
COc1ccc(CCNC(=O)c2ccc(Cl)nc2)cc1	-1	-0.9	.	.	.
Nc1cccc(N2C(=O)c3cccc4c(N)ccc(c34)C2=O)c1	-5	-79	.	.	.
COc1ccc(-c2cc3ccc(O)cc3oc2=O)cc1	?	i	.	.	.
COc1ccc(OC)c(C2=C[N+](=O)C(C)(C)C(C)(C)N2[O-])c1	1	8.0	-24	1	-1%
Oc1ccc(C(=S)N2CCN(Cc3ccccc3)CC2)cc1	-2	1.2	.	.	-13%
O=C(NC(Cc1c[nH]c2ccccc12)C(=O)Nc1ccc(OC(F)(F)F)cc1)c1cccs1 (centres undefined)	-1	1.2	-30	-14	50%
CN1CCc2nc(SCC(=O)Nc3ccc(Cl)cc3)c(C#N)cc2C1	1	1.2	19	-1	5%
Cc1ccc(Cn2ccc(NC(=O)c3cc(-c4ccc(F)cc4)on3)n2)cc1	-5	-0.8	-49	-1	2%
O=C(CN1CCN(c2ccccc2)CC1)Nc1ccc(Oc2ccccc2)cc1	77	0.5	-1	-25	-6%
CCNc1nc(Oc2ccc(=O)n(-c3ccccc3)n2)nc(N2CCOCC2)n1	-3	-2.8	-28	2	-3%
O=c1[nH]c(N2CCN(Cc3ccc4c(c3)OCO4)CC2)nc2c1CCCC2	-1	-1.4	.	-4	12%
C=CCc1cccc(Cl)c1OCCCNC1CCCC1	-1	-0.4	.	.	.
CCOC(=O)Cc1csc(NC(=O)Cn2c(=O)oc3ccccc32)n1	-9	-5.3	.	.	-4%
Cc1cc(NC(=O)c2cccc(S(=O)(=O)N3CCC(C)CC3)c2)no1	?	3.2	.	.	.
CCCCNC(=O)CSc1nc(O)c(Cc2ccc(OC)cc2)c(=O)[nH]1	3	-2.5	.	.	-14%
Cc1ccc(-c2nnn(CC(=O)N(Cc3ccccc3)C(C(=O)NC3CCCC3)c3ccncc3)n2)o1 (centres undefined)	3	-0.5	-33	-6	8%
Oc1ccc(NCc2cccs2)cc1	0	-5.7	.	.	.
NC(=O)COC(=O)CCCSc1nc2ccccc2s1	-6	2.3	.	-7	-6%
CN(Cc1ccco1)C(=O)c1c[nH]c2ccc(S(=O)(=O)Nc3ccc4c(c3)OCCO4)cc2c1=O	-5	-1.8	-21	3	-4%
COc1ccc(C)cc1NC(=O)NNC(=O)C1CCC(C(C)(C)C)CC1 (centres undefined)	8	0.1	.	-25	1%
O=C(CSC1c2ccccc2-c2ccccc21)N/N=C/c1ccccc1C(=O)O	-1	1.2	.	5	3%
COc1ccc(/C=N/NC(=O)C(=O)NCC2CCCO2)cc1 (centres undefined)	2	-2.2	-19	-8	-1%
CC12CN3CC(C)(CN(C1)C3c1ccc3ccccc3c1O)C2=O (centres undefined)	4	.	-21	9	-2%	Arbovirus inh repeat=14
C=CCN1c2ccccc2[C@]23C[C@@H](C(=O)OC)N(C(=O)OCC)C2=NC(C(=O)OC)=C(C(=O)OC)[C@H]13	-1	-1.3	.	.	-6%
CCCSc1nc2sc3c(c2c(=O)[nH]1)CCN(Cc1ccccc1)C3	5	-15	-26	-2	11%
Cn1cnnc1SCC(=O)NNC(=O)c1ccc(Cl)cc1	-5	0.0	-28	3	5%
Cc1nnc(SC(C)C)n(N)c1=O	-5	.	.	3	0%
COC(=O)CCC(=O)OC1(C)C(=O)C2=CN(CCCCO)C(c3ccc(OC)cc3)=CC2=C(Br)C1=O (centres undefined)	16	48*	.	.	.
O=C(/C=C/c1ccco1)Nc1cccnc1	-4	1.6	.	2	-10%
Cn1c(C(=O)N2CCCC(C(=O)NCCc3ccccc3)C2)cc2sccc21 (centres undefined)	4	2.9	-14	-6	2%
CCCCS(=O)c1c(O)c2ccccc2[nH]c1=O (centres undefined)	7	-3.6	-29	5	-2%
COc1ccccc1-c1nc(-c2ccc(Br)o2)no1	6	3.9	1	0	7%
Cc1ccc(S(=O)(=O)NCc2ccccc2)cc1C(=O)NC1CCC(C)CC1 (centres undefined)	-12	3.5	.	.	.
Cc1ccccc1C(=O)NCCCCc1ccccc1	-17	2.8	-32	0	9%
COc1cccc(C2(CSc3nnc(-c4cc(OC)c(OC)c(OC)c4)o3)OCCO2)c1	-9	7.2	-25	4	.
CC(C)N=C(NC#N)SCc1ccc(Br)cc1	1	1.5	-35	3	9%
CCCCC1C2C(=O)N(c3ccccc3)C(=O)C2ON1c1ccccc1 (centres undefined)	-8	-1.3	.	.	-15%
CCCC(=O)OCCNC(=O)c1cc2ccccc2oc1=O	-11	3.2	-16	5	2%	Arbovirus inh repeat=4

The final 3 records of the section before open the next one:
SMILES	Mtb betalactam	RecA intein inh	YopH inh	Arbovirus inh	Mtb H37Rv	others
CC(C)N=C(NC#N)SCc1ccc(Br)cc1	1	1.5	-35	3	9%
CCCCC1C2C(=O)N(c3ccccc3)C(=O)C2ON1c1ccccc1 (centres undefined)	-8	-1.3	.	.	-15%
CCCC(=O)OCCNC(=O)c1cc2ccccc2oc1=O	-11	3.2	-16	5	2%	Arbovirus inh repeat=4
CC(Sc1nc2sccc2c(=O)n1-c1ccccc1)C(N)=O (centres undefined)	-5	0.3	.	.	.
COc1ccc(Nc2nc(C)cc(C)c2C#N)cc1	-5	-1.2	-18	-6	0%
O=C(NCC1CCCO1)c1cccnc1NCc1ccc(F)cc1 (centres undefined)	13	0.2	.	-8	-5%
CN(C)c1nnnn1-c1ccc(Cl)cc1Cl	-11	1.6	.	6	13%
COC(=O)c1c(C)cc(O)cc1O	-9	-1.2	.	.	-11%
Cc1ccc(-n2nc3c(c2NC(=O)c2cccs2)CS(=O)(=O)C3)c(C)c1	-3	4.6	.	.	.
CCCN(C(=O)c1ccc2c(SCC(=O)O)c3c(nc2c1)CCC3)c1cccc(C)c1	?	0.6	.	.	.
Cc1ccc(CSCC(=O)Nc2ccc(F)cc2)cc1	10	2.7	-33	14	62%
O=c1[nH]nc(-c2ccc(OCc3ccc(Cl)cc3Cl)cc2)o1	3	0.3	.	.	.
CCn1c(SCc2ccccc2Cl)nc2nc3c(cc2c1=O)CCCC3	.	-0.2	3	6	16%
O=C1Nc2ccccc2/C1=N\N1CCOCC1	-10	5.6	.	.	.
O=c1onc(-c2ccccc2)c2ccccc12	-2	-1.0	.	.	.
O=C(NC(CC(=O)N1CCCC(C(F)(F)F)C1)c1ccccc1)c1ccccc1Cl (centres undefined)	-3	-0.2	.	.	.
COc1ccc(N(C(C)C(=O)N2CCC(Cc3ccccc3)CC2)S(C)(=O)=O)cc1 (centres undefined)	1	8.0	.	-5	-3%
CCOc1ccc(NS(=O)(=O)c2ccc(SC)cc2)cc1	-18	-0.8	-24	2	8%
CC(=O)NC(Cc1c[nH]c2ccccc12)C(=O)OCC(=O)Nc1ccc2c(c1)OCO2 (centres undefined)	95	0.8	-28	1	-3%
CC(O)[C@H]1CC[C@H]2[C@@H]3CC[C@H]4C[C@@H](O)CC[C@]4(C)[C@H]3/C(=N/O)C[C@]12C (some centres undefined)	-11	9.1	.	.	.
CCn1c(SCC(=O)c2ccccc2)nnc1-c1cc2cc(Br)ccc2o1	1	12	-4	-5	5%
CC(=O)c1ccc(-n2nnnc2SCC(=O)NNC(=O)c2ccco2)cc1	7	1.1	-33	8	-7%
COc1ccc(N(C)S(=O)(=O)c2ccc3c(c2)CCN3C(=O)C2CC2)c(OC)c1	-2	-2.7	.	.	.
Cn1cc(Br)c(C(=O)Nc2nccs2)n1	-1	0.6	-23	-1	-1%
Cc1ccc(SCc2cc(=O)[nH]c(N3CCN(Cc4ccc5c(c4)OCO5)CC3)n2)cc1	31	2.4	-4	-9	4%
COCCC(=O)N1CCC(Oc2ccc(C(=O)N3CCC(N(C)C)C3)cc2)CC1 (centres undefined)	-1	-2.2	.	.	.
Cc1cc2ccccn2c1C(=O)c1ccc(F)cc1	7	0.7	.	.	.
COc1ccc(CC(=O)Nc2c(C(N)=O)oc3ccccc23)cc1	-3	-0.7	.	.	.
C=CCn1c(SCC(=O)N(C)C2CCS(=O)(=O)C2)nc2ccccc2c1=O (centres undefined)	0	0.2	.	2	2%
Cc1cc(C)c(NC(=O)c2cc3c(nc4sccn43)s2)c(C)c1	-1	-6.5	-44	-1	-2%
CC1CC(C)CN(C(=O)CSc2nnc(CSc3ncccn3)n2C)C1 (centres undefined)	0	-0.3	-5	5	-7%
CCn1c(C)nc2cc(C(=O)N/N=C/c3ccc(N4CCOCC4)cc3)ccc21	2	-1.1	.	-4	-7%
Cc1c(NC(=O)N2CCCCCC2)c(=O)n(-c2ccccc2)n1C	-9	0.2	-14	1	5%
Cc1ccc2nc(NC(=O)CN3CCOCC3)sc2c1	-4	-0.1	-2	-1	-4%
Cc1nn(C(C)C(=O)NNC(=S)Nc2ccc(F)cc2)c(C)c1[N+](=O)[O-] (centres undefined)	-9	-1.7	-20	6	-9%
Cc1c(Br)ccc(NC(=O)Cn2nc(-c3cccs3)ccc2=O)c1C	-2	0.8	.	.	.
O=C(COc1ccc(C(=S)N2CCOCC2)cc1)N1CCCC1	-12	-5.6	-9	5	-5%
COc1ccc(N2CC(C)Cn3c2nc2c3c(=O)[nH]c(=O)n2C)cc1 (centres undefined)	3	-1.3	-21	5	-2%
CCCn1c(N)c(C(=S)NC(=O)C2CC2)c(=O)n(C)c1=O	.	.	-26	5	11%
CC(C)C1Cc2c(sc3c2c(=O)n(Cc2ccccc2)c2nncn32)CO1 (centres undefined)	8	0.4	-44	-7	4%
Cn1c(Cn2c(=O)sc3ccccc32)nnc1SCC(=O)Nc1ccccc1	-2	-0.8	-18	1	0%	Arbovirus inh repeat=-4
O=C1C(c2ccccc2)=[N+]([O-])c2ccccc21	100	-6.0	.	.	.
O=C(NC1CCc2ccccc21)c1cc(COc2ccc(F)cc2F)on1 (centres undefined)	15	1.7	.	-1	14%
C=COCCNC(=O)C(=O)NC(C)C	-9	0.7	-35	4	2%
CC(C)c1ccc(CNc2cc(N3CCCC3)ccc2[N+](=O)[O-])cc1	15	0.9	-27	-1	9%
CCOc1ccc(-n2c(SCC(=O)Nc3cc(C)on3)nc3c([nH]c4ccccc43)c2=O)cc1	2	1.4	-41	16	6%	Arbovirus inh repeat=5
CCC(=O)Nc1cccc(Oc2nc(C)cc(C)c2C#N)c1	5	-9.4	-47	8	20%
O=C1/C(=C\c2ccncc2)SC(=S)N1C1CCCCC1	-2	0.0	-11	4	4%
COc1ccc([N+](=O)[O-])cc1NC(=O)C(C)N1CCN(C(=O)c2ccco2)CC1 (centres undefined)	-3	-3.8	.	1	-4%
Cc1ccc(CN2CCSCC2)c(C)c1	5	0.7	-18	-1	1%
O=C(NN1C(=O)/C(=C/c2cccs2)SC1=S)c1ccncc1	-6	2.0	.	.	-11%
Cc1cc(O)ccc1NC(=O)CCN1C(=O)c2ccc([N+](=O)[O-])cc2C1=O	2	-6.3	0	3	2%
CC(=O)N1CCc2c(sc(NC(=O)C3CCCN3S(=O)(=O)c3cccs3)c2C#N)C1 (centres undefined)	-5	0.1	.	.	.
CC(C)C[C@H](NC(=O)NC1CCCc2ccccc21)C(=O)O (some centres undefined)	-4	-0.4	.	.	-7%
COc1ccc(-c2csc(NC(=O)c3ccc(OCC(=O)N4CCOCC4)c(OC)c3)n2)cc1OC	71	3.1	-21	15	10%
O=C(O)c1cccnc1SC1CC(=O)N(c2cccc(C(F)(F)F)c2)C1=O (centres undefined)	0	0.3	-37	3	0%	Arbovirus inh repeat=3
NS(=O)(=O)c1ccc(Sc2ccc3c(c2)CCC3)nc1	1	0.8	.	.	.
CN(C)c1ccnc2sc3c(NCC(O)CO)ncnc3c12 (centres undefined)	4	0.3	-27	2	9%

Looked up one by one from the entries so far (6):
SMILES	Mtb betalactam	RecA intein inh	YopH inh	Arbovirus inh	Mtb H37Rv	others
CN(C)c1nnnn1-c1ccc(Cl)cc1Cl	-11	1.6	.	6	13%
Cn1c(C(=O)N2CCCC(C(=O)NCCc3ccccc3)C2)cc2sccc21 (centres undefined)	4	2.9	-14	-6	2%
O=C1Nc2ccccc2/C1=N\N1CCOCC1	-10	5.6	.	.	.
Cc1ccc(SCc2cc(=O)[nH]c(N3CCN(Cc4ccc5c(c4)OCO5)CC3)n2)cc1	31	2.4	-4	-9	4%
Oc1ccc(NCc2cccs2)cc1	0	-5.7	.	.	.
Nc1cccc(N2C(=O)c3cccc4c(N)ccc(c34)C2=O)c1	-5	-79	.	.	.

Assay outcomes as filed in PubChem BioAssay.
